Sa ugtP lethal – compounds lethal to S. aureus RN4220 ugtP deletion mutant | OD600 growth, 16 h; some inactives read as strong as hits | 330,000 compounds, 0.54% hits | growth inhibition, % (no concentration beside the values);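 active = z-score under -3 and OD600 up to 0.15 on both plates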;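 note: plate controls were untreated wells for no effect and antibiotic for full effect; wells of about 80 µL received 100 nL stock; the first replicate is given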
BJeLR viability – kills HRASV12-expressing BJeLR cells; BJeLR (HRASV12) viability, CellTiter-Glo ATP luminescence, 48 h; reference of the scale not given here; AID 1554; inhibition, % (no concentration beside the values); 300,000 compounds, 0.17% hits;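 active = replicate mean above 50%; inconclusive = above 50% but judged a plate artefact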;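 note: 50 nL library stock added to about 25 µL; numbers are from one replicate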
RN4220 kill – S. aureus RN4220 growth inhibition; 330,000 compounds, 0.33% hits; inhibition, % (no concentration beside the values); OD600, 16 h;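 active = z-score of -3 or lower and OD600 up to 0.18 on both plates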;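 note: plate controls were untreated cells for no effect and reference antibiotic for full effect; stock transfer was 100 nL into about 80 µL; one replicate is shown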
Autofluor counter – flagged as autofluorescent in microsphere protease counterscreen; fluorescence intensity (no concentration beside the values); compound autofluorescence counterscreen, microsphere flow cytometry; hits give high values; 360,000 compounds, 3.1% hits; AID 624483;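 active = at least 3 SD above the mean of all compounds, about 16000 in these data; inconclusive = too few beads counted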;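 note: 100 nL of 1 mM stock went into each well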
PrP UTR inh – inhibition of PrP 5' UTR reporter expression; cell-based PrP 5' UTR mRNA reporter, plate reader; inhibition, % (no concentration beside the values); 340,000 compounds, 0.35% hits;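 active = every replicate at 50% or more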;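 note: 0 = median of the neutral control wells; tested in H4 reporter cells; numbers are from one replicate; inactives centre near -14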
Mtb hypoxia rep – inhibitors of hypoxia-regulated fluorescent reporter in Mycobacterium tuberculosis; M. tuberculosis hypoxia-regulated fluorescent reporter, fluorescence; fluorescence inhibition, % (no concentration beside the values); 300,000 compounds, 0.1% hits; AID 1159583;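 active = 35 to 45% if threefold the growth effect, above 45% if 1.5-fold the growth effect; inactive = the rest, general growth blockers included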;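 note: wells of about 50 µL received 100 nL stock; 0% = vehicle wells and 100% = reference inhibitor wells; whole bacteria with a GFP reporter of the hypoxia response; strong numbers were not always called active; many hits fall short of the cut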
Mtb hypoxia rep growth – second read-out of Mtb hypoxia rep, no call of its own (marks repeat the call); growth inhibition, %; measured here: M. tuberculosis growth (absorbance);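 0% = vehicle and 100% = reference antibiotic; read after six days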
Active calls of the source: *; ? = inconclusive; . = no result given; & = joins results of further samples; ! = not confirmed by another sample.

compound	Mtb hypoxia rep growth	Mtb hypoxia rep	Sa ugtP lethal	Autofluor counter	BJeLR viability	RN4220 kill	PrP UTR inh
COc1ccc(OC)c(CC(NC(C)=O)C(=O)NC2CCN(c3cc(C)nc4ncnn34)CC2)c1 (stereo not given)	9	-13	9	.	3	1.1	.
CC(=NCCN1CCNCC1)C1=C(O)CC(C)(C)CC1=O	8	1	-3	8357	-4	1.2	-20
CCOC(=O)C(C)Sc1nnc2n1C(C)(C)Cc1ccccc1-2 (stereo not given)	21	3	-5	24062*	0	-0.2	-9
CCOC(=O)c1ccc(NC(=O)Oc2ccccc2)cc1	2	3	2	14870	3	-0.3	-11
NC(=O)c1nsc(C(=O)N(CC(=O)NC2CCCC2)c2cccc(C(F)(F)F)c2)c1N	-9	4	-4	3736	-3	-5.0	-7
O=C(Nc1nc2c(F)c(F)c(F)cc2s1)c1ccco1	9	-4	3	5323	-10	1.5	-104
COc1ccc2[nH]c(=O)c(C(c3nnnn3C3CCCC3)N(C)C3CCCCC3)cc2c1 (stereo not given)	7	4	-6	24246*	-3	5.7	-19
COc1ccccc1OCC(=O)N1CCCC(Nc2cccc(F)c2)C1 (stereo not given)	2	8	0	6085	2	-0.7	-12
COc1cc(C(=O)Nc2cccc(C(C)=O)c2)cc(OC)c1OC	8	3	6	4555	9	6.2	-2
CC(c1cccnc1)N(C(=O)Nc1ccccc1)C1CCCCC1 (stereo not given)	3	10	13	5733	-12	2.7	-23
CO/N=C/c1ccc(Oc2ccc([N+](=O)[O-])cc2[N+](=O)[O-])c(OC)c1	.	.	.	2105	-6	.	-19
O=C(CSc1ccc(-c2ccccc2)nn1)NCc1ccco1	6	-2	1	8849	-3	0.8	-24
Cc1cccc(NC(=O)N2CCN(Cc3ccc(Cl)cc3)CC2)c1	-1	10	0	2041	6	0.6	4
CN(C)c1ccc(CN2CC=C(c3ccc(F)cc3)CC2)cc1	7	-4	-3	15858	0	0.6	-6
COc1cccc(NC(=O)CSc2nnc(Cn3cnc([N+](=O)[O-])n3)n2C)c1	-6	1	4	9543	6	3.5	-14
O=C(OCC(=O)N1CCC(Cc2ccccc2)CC1)c1ccc(CO)cc1	7	14	8	3493	.	4.7	-23
CN(C)CCCN(C(=O)c1ccc(S(=O)(=O)N2CCCCCC2)cc1)c1nc2cc3c(cc2s1)OCCO3	3	5	12	6610	-1	1.9	-11
COCc1nnc(NC(=O)c2cccc(NC(=O)c3ccccc3)c2)s1	-5	1	-4	4556	11	-0.6	-12
Cc1nc(SCC(=O)NC2CC2)c2c(C)c(C)sc2n1	.	.	.	3662	-7	.	-6
CCOC(=O)c1c2ccccc2[n+]([O-])n1C(C)C(N)=O (stereo not given)	8	20	5	.	.	5.8	.
O=C(/C=C/c1cccc([N+](=O)[O-])c1)N1CCN(Cc2ccccc2)CC1	8	20	5	4072	2	0.3	-11
CC(=O)Nc1ccc(N=Nc2ccc(O)cc2)cc1	1	0	-8	2396	-20	-2.0	-66
Cc1ccc(/C=C/c2ccc(N(C)C)cc2)[n+](C)c1	-5	13	16	6826	26	4.0	-16
CN1/C(=C/C(=O)c2cccs2)Sc2ccccc21	.	.	-10	20294*	6	24	-46
O=C(COC(=O)c1c2c(nc3ccccc13)CCCC2)Nc1ccc2c(c1)OCO2	6	2	-28	2794	1	-6.1	-32
COc1ccc(C=NNC(=O)c2ccc3c(c2)NC(=O)C(C)(C)O3)cc1OC	7	6	-8	.	.	2.4	.
Cc1ccccc1-n1c([C@@H]2C[C@H]2c2ccccc2)n[nH]c1=S	1	19	14	3447	-20	3.1	-19
COC(=O)c1sc2nc(SCc3cccc(Cl)c3)n(N)c(=O)c2c1C	11	7	6	2148	-4	3.3	-23
Cc1c(NC(=O)c2c([N+](=O)[O-])cnn2C)c(=O)n(-c2ccccc2)n1C	-4	1	4	4349	7	2.0	-19
Cc1cc2oc(C(=O)Nc3c(C)n(C)n(-c4ccccc4)c3=O)c(C)c2cc1Cl	.	.	.	2072	13	.	-37
CCn1cc(C(=O)O)c(=O)c2cc(F)c(N3CCN(C(=S)NC(=O)c4cccc(C)c4)CC3)cc21	9	11	39	5527	7	43	-21
CC1CCc2sc(C(=O)NN)cc2C1 (stereo not given)	2	4	-2	4288	23	1.3	-24
Cc1ccc(Nc2nc(NCC3CCCO3)nc(N)c2[N+](=O)[O-])cc1 (stereo not given)	6	-1	-17	2082	-18	-0.3	-67
CC1(C)CC(=O)c2cnc(NC(=O)CSc3nc4ccccc4o3)nc2C1	.	.	12	5209	5	0.6	-14
CC(C)c1ccc(N(CC(=O)NCc2ccco2)C(=O)CCC(=O)Nc2ccccn2)cc1	6	-6	3	6152	-7	0.7	-13
CC1CCc2sc(C(=O)NCC3CCCO3)cc2C1 (stereo not given)	.	.	5	?	.	-0.7	-58
O=C(COc1coc(CN2CCc3ccccc3C2)cc1=O)Nc1ccc([N+](=O)[O-])cc1	0	12	-3	4417	-11	1.2	-13
CC(NC(=O)c1nc[nH]c1C(=O)NC(Cc1ccccc1)C(=O)OC(C)(C)C)C(=O)OC(C)(C)C (stereo not given)	4	5	-18	.	.	5.4	.
CCCCn1c(SCN2C(=O)c3ccccc3C2=O)nc2cc(S(N)(=O)=O)ccc21	10	21	-5	2966	-6	-11	-11
COc1ccc(NC(=O)CCc2nnc3ccc(NCc4ccc5c(c4)OCO5)nn23)cc1	-3	-1	1	5670	-3	0.4	-6
O=c1[nH]c(=S)n(-c2cccc(Cl)c2)c(O)c1/C=N/N1CCOCC1	9	6	3	3487	-5	0.2	-21
CCN1C(=O)/C(=C/N2CCc3ccccc32)SC1=S	.	.	.	3712	-4	.	-51
Cc1cc(Cl)cc(C)c1OCCCCn1ccnc1	.	.	-4	10510	0	0.0	.
Cc1cc(C)cc(NC(=O)c2ccc(S(=O)(=O)NCc3cccnc3)cc2)c1	1	7	12	2863	-17	-1.0	-29
Cc1cccc(OCc2nnc(SCc3nc4ccccc4c(=O)[nH]3)o2)c1	.	.	-6	3027	2	-0.2	-15
O=C(Cn1nc(-c2ccccc2)ccc1=O)Nc1ccc(N2CCN(C(=O)c3ccccc3)CC2)cc1	4	-3	30	22910*	7	7.0	-17
COc1ccc(N2CCN(C3CCCN(S(=O)(=O)c4ccccc4)C3)CC2)cc1 (stereo not given)	-29	14	13	.	3	4.2	-4
C#CCOCCOCCOCCNc1nc(N2CCN(C(=O)Cn3cc(CCCN=C(N)N)nn3)CC2)nc(N2CCN(C(=O)C(CCCCN)n3cc(CCCC)nn3)CC2)n1 (stereo not given)	6	2	6	.	.	5.0	.

Ordered by heavy-atom count (falling): part of the list above
compound	Mtb hypoxia rep growth	Mtb hypoxia rep	Sa ugtP lethal	Autofluor counter	BJeLR viability	RN4220 kill	PrP UTR inh
CCn1cc(C(=O)O)c(=O)c2cc(F)c(N3CCN(C(=S)NC(=O)c4cccc(C)c4)CC3)cc21	9	11	39	5527	7	43	-21
CCCCn1c(SCN2C(=O)c3ccccc3C2=O)nc2cc(S(N)(=O)=O)ccc21	10	21	-5	2966	-6	-11	-11
Cc1cccc(NC(=O)N2CCN(Cc3ccc(Cl)cc3)CC2)c1	-1	10	0	2041	6	0.6	4

Another view of four compounds above:
> CCN1C(=O)/C(=C/N2CCc3ccccc32)SC1=S
  Mtb hypoxia rep growth: .	Mtb hypoxia rep: .	Sa ugtP lethal: .	Autofluor counter: 3712	BJeLR viability: -4	RN4220 kill: .	PrP UTR inh: -51
> Cc1cc(Cl)cc(C)c1OCCCCn1ccnc1
  Mtb hypoxia rep growth: .	Mtb hypoxia rep: .	Sa ugtP lethal: -4	Autofluor counter: 10510	BJeLR viability: 0	RN4220 kill: 0.0	PrP UTR inh: .
> Cc1cc(C)cc(NC(=O)c2ccc(S(=O)(=O)NCc3cccnc3)cc2)c1
  Mtb hypoxia rep growth: 1	Mtb hypoxia rep: 7	Sa ugtP lethal: 12	Autofluor counter: 2863	BJeLR viability: -17	RN4220 kill: -1.0	PrP UTR inh: -29
> Cc1cccc(OCc2nnc(SCc3nc4ccccc4c(=O)[nH]3)o2)c1
  Mtb hypoxia rep growth: .	Mtb hypoxia rep: .	Sa ugtP lethal: -6	Autofluor counter: 3027	BJeLR viability: 2	RN4220 kill: -0.2	PrP UTR inh: -15

Further structures follow:
compound	Mtb hypoxia rep growth	Mtb hypoxia rep	Sa ugtP lethal	Autofluor counter	BJeLR viability	RN4220 kill	PrP UTR inh
O=C(c1cc(-c2cccc(O)c2)on1)N1CCN(C(c2ccccc2)c2ccccc2)CC1	.	.	10	4378	6	8.4	-13
Nc1c(C(=O)CSc2nccn2-c2ccc(Cl)cc2)c(=O)[nH]c(=O)n1C1CC1	-3	0	4	.	.	-0.6	-15
COC(=O)c1nc(NC(=O)c2cc(OC)c(OC)c(OC)c2)n[nH]1	11	-4	9	5053	0	0.1	-9
O=C(O)C1CC(c2cccc(Br)c2)=NO1 (stereo not given)	-9	-2	8	8183	1	3.5	-11
CC(C)(C)c1nc2ccc(NS(=O)(=O)c3ccc(F)c(F)c3F)cc2[nH]1	1	1	8	5462	1	-0.8	-2
O=C(Nc1cnn(Cc2ccc(Cl)cc2)c1)C1CCCC1	4	4	0	11717	-4	-3.1	-21
Clc1ccc(-c2cn3c(n2)-c2ccccc2C3)cc1Cl	0	8	-19	8316	3	2.2	-52
Cc1cc(-c2cc(C(=O)Nc3ccccc3)on2)nc(NCC2CC2)n1	4	0	-16	2965	-11	1.3	8
CCc1ccccc1N(CC(=O)NCc1ccco1)C(=O)c1snc(C(N)=O)c1N	10	6	-4	2815	2	8.0	-2
O=C(C1CCCN(S(=O)(=O)c2ccc(F)cc2)C1)N1CCCC1 (stereo not given)	3	9	3	3463	6	4.5	-21
O=C1C2CCC(C2)C1CN1CCOCC1 (stereo not given)	3	4	4	4049	.	3.4	-33
O=C(NNC(=O)[C@H]1CC=CC[C@H]1C(=O)O)c1ccc(Cl)cc1Cl	-4	-7	-1	4205	-2	-2.6	-21
N/C(COc1ccc(Cl)cc1Cl)=N\NS(=O)(=O)c1ccccc1	1	-5	-10	7020	15	-2.0	-8
CCN1CCN(c2ccc(S(=O)(=O)N3CCOCC3)cc2NC(=O)CC(NC(C)=O)c2ccccc2)CC1 (stereo not given)	9	7	3	2739	.	1.9	-9
CC1=CC(C)=Nc2ccc(C)cc2N1	10&5	16&6	-6&4	18983*!	14&-15	6.0&2.3	-20&-42
CCN(CC)S(=O)(=O)c1cc(NC(=O)CSCc2c(C)noc2C)ccc1C	-6	-4	-6	3614	.	-2.1	-23
Cc1cc2ncn(CC(C)C)c2cc1C	1	10	3	4476	3	3.6	-23
OC(COc1ccccc1)CN1CCCCC1 (stereo not given)	2	4	-4	3654	.	-0.8	-4
O=C(C1CCCC1)N1CCC(CC2CC(c3ccc(Cl)cc3)=NO2)(C(=O)NCC2CCCCC2)CC1 (stereo not given)	1	-9	-4	3776	2	-4.2	-6
COc1ccc(C2c3[nH]c4ccccc4c3CCN2Cc2ccoc2)c(F)c1 (stereo not given)	0	14	32	4136	5	-6.6	-31
O=c1c(-c2nnc(SCc3ccc(Cl)cc3Cl)o2)cccn1Cc1ccccc1	10	6	-2	22041*	7	-13	8
COc1ccc(/C=C/c2nnc(NC(=O)c3ccco3)s2)cc1	-7	5	6	6219	2	8.0	.
O=C(Cn1nnc(-c2ccc(S(=O)(=O)N3CCCC3)cc2)n1)NCC1CCCO1 (stereo not given)	17	-6	-3	22963*	5	-0.3	-5
O=C(/C=C/c1ccccc1)NC(=S)NNC(=O)c1cnccn1	.	.	.	3372	10	.	15
O=C(CCC(=O)N(CC(=O)NC1CCCCC1)c1ccc2c(c1)OCCO2)Nc1ccccn1	-6	0	5	.	5	7.1	.
O=C(NCCC(=O)N1CCc2ccccc21)c1ccco1	15	-8	3	3813	4	5.4	-21

Bioassay records: PubChem, several laboratories
